UUG fidelity = alters start codon recognition fidelity in yeast; S. cerevisiae UUG-firefly luciferase reporter, luminescence/redox ratio; activity score, % at 18.7 µM; 0.13% of 350,000 active; AID 602363;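 active means replicate mean at a twofold rise or more, about +100% in these data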;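 further: firefly luciferase made from a UUG start codon reports start codon fidelity; reporter light over untreated wells divided by growth signal over untreated wells; some hits fall short of that in this replicate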
eIF4H FP inh = inhibitors of RNA binding by human eIF4H | Q15056 | eIF4H fluorescence polarization binding assay | inhibition, % at 35 µM | 0.94% of 290,000 active | AID 2012;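 active means 50% or more with normal probe brightness, or confirmed in later tests; inconclusive means above 50% with abnormal brightness, or retests that disagree; inactive means below 50% or failed in later tests; about a fifth of its hits are not listed in these tables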;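 further: calls also rest on retests at 20 µM and on dose response follow-up; 0% = protein and probe with vehicle and 100% = probe without protein; strong numbers were not always called active; many hits fall short of the cut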
Rce1 inhib = inhibitors of yeast Ras-converting enzyme; Q03530; yeast membranes, quenched prenylated peptide cleavage fluorescence; calls only; 0.27% of 290,000 active; AID 2563;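 active means fall in fluorescence gain of 50% or more versus controls, with final raw signal at or below 3038400; inconclusive means same 50% fall but final raw signal above 3038400; inactive means fall in fluorescence gain under 50%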;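 further: plate controls were neutral control wells for no effect and wells lacking membranes for full effect; tested at 10 µM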
CSC inhib = cancer stem cell inhibition; cancer stem cell-like cells viability, luminescence; inhibition, % at 7.5 µM; 1.1% of 300,000 active; AID 2717;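 active means mean at 75% or more and at least half the replicates too; inconclusive means mean and replicates disagree; tested in HMLE shEcad cells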;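 further: 0% = median of negative and 100% = median of positive control wells; the first replicate is given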
HIV Env fusion = HIV envelope-mediated fusion inhibition. AID 651610. inhibition, % at 12.3 µM. 1.1% of 360,000 active. HeLa-JRFL Env/CEM21 cell fusion, luciferase;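 active means mean replicate inhibition score of at least 50 and every replicate individually at or above 50; inconclusive means only one of the two criteria met; inactive means mean below 50 and not all replicates reaching 50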;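 further: 0% = plate neutral controls and 100% = maraviroc near 300 nM; one replicate is shown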
MT1-MMP act inh = MT1-MMP (human) activation inhibition | 0.061% of 360,000 active | AID 651647 | GFP/RFP ratio change, % at 20 µM | HT1080 RFP-PRO-GFP cells, GFP/RFP ratio fluorescence, overnight; percent of plate control window, DMSO zero;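 active means GFP/RFP ratio change of at least 30% with cell ATP level not reduced by more than half and red fluorescence within 50% of control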; further: strong numbers were not always called active
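Assay system: HT1080 RFP-PRO-GFP cells. Benchmarks: DMSO vehicle wells and RFP-L50D-GFP reporter cell wells. Times: overnight cell settling, then overnight compound exposure, 37 °C, 5% CO2. Compound: 20 µM single dose, 1% DMSO. Read-out basis: GFP/RFP fluorescence ratio.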
PABP FP inh = PABP-poly(A) binding inhibition. P11940. PABP-poly(A) RNA binding, fluorescence polarization. inhibition, % at 35 µM. 1% of 290,000 active. AID 2014;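 active means 50% or more with normal probe brightness, or confirmed in later tests; inconclusive means above 50% with abnormal brightness, or retests that disagree; inactive means below 50% or failed in later tests; about a fifth of its hits are not listed in these tables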;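 further: calls also rest on retests at 20 µM and on dose response follow-up; controls were probe without protein and protein plus probe with vehicle; some compounds called inactive have numbers as strong as hits; many hits fall short of the cut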
Target sequence (P11940 whole entry, looked up): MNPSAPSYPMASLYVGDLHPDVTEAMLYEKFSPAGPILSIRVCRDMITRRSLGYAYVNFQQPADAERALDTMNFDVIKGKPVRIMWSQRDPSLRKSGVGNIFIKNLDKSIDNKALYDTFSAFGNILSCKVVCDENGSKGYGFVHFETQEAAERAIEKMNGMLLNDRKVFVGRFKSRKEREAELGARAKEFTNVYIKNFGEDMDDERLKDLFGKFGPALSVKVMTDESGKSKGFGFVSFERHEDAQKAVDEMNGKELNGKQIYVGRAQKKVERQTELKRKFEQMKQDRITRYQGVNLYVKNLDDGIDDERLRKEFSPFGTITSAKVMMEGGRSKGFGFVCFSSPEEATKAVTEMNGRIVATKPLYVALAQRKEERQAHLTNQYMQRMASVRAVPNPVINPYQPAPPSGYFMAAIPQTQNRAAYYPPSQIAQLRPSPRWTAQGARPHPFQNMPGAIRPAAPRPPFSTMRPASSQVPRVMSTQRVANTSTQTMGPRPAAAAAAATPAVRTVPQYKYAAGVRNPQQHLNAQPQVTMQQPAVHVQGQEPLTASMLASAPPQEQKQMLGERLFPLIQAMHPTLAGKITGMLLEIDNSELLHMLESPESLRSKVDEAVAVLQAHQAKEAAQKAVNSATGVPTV
eIF4H FP inh retest = further read-out of eIF4H FP inh, marked with its call; inhibition, %; compound at 20 µM; confirmation average;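 mean of two retest wells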
PABP FP inh retest = also measured in PABP FP inh; calls as there; inhibition, %; compound at 20 µM; confirmation repeats;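 mean of two retest wells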
MT1-MMP act inh RFP = further read-out of MT1-MMP act inh, marked with its call; RFP signal change, %; measured here: RFP expression control read;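 0 = vehicle wells; hits needed this value within 50% of zero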
The depositor's hits bear a star.

Sample of the layout, 2 compounds:
Cc1ccc(NC(=O)c2cc(NC(=O)CCCC(=O)O)ccc2Cl)cc1Cl was read as UUG fidelity 7, eIF4H FP inh -3, Rce1 inhib inactive, CSC inhib -8, MT1-MMP act inh -1, PABP FP inh 8 and MT1-MMP act inh RFP -2.
`CCOC(=O)C1=C(C)NC(C)=C(C(=O)OCC)C1C(=O)OCC(=O)NC1(C#N)CCCCC1` gave UUG fidelity -10, Rce1 inhib inactive, HIV Env fusion 10, MT1-MMP act inh 5 and MT1-MMP act inh RFP -1.

Main list, from the first entry:
Cc1ccc(NC(=O)c2cc(NC(=O)CCCC(=O)O)ccc2Cl)cc1Cl was read as UUG fidelity 7, eIF4H FP inh -3, Rce1 inhib inactive, CSC inhib -8, MT1-MMP act inh -1, PABP FP inh 8 and MT1-MMP act inh RFP -2.
`CCOC(=O)C1=C(C)NC(C)=C(C(=O)OCC)C1C(=O)OCC(=O)NC1(C#N)CCCCC1` gave UUG fidelity -10, Rce1 inhib inactive, HIV Env fusion 10, MT1-MMP act inh 5 and MT1-MMP act inh RFP -1.
Screening O=C(CCN1C(=O)c2ccccc2C1=O)N1CCCCCC1 returned UUG fidelity -8, eIF4H FP inh -7, Rce1 inhib inactive, CSC inhib 2, MT1-MMP act inh 0, PABP FP inh -4 and MT1-MMP act inh RFP -2.
Screening COc1ccccc1-n1ccnc1SCC(=O)NCc1ccco1 returned eIF4H FP inh 14, Rce1 inhib inactive, CSC inhib -12, HIV Env fusion 15, MT1-MMP act inh 0, PABP FP inh -8 and MT1-MMP act inh RFP 2.
`CCn1nnnc1-c1ccc(OC)c(S(=O)(=O)Nc2ccc(OC)cc2)c1` gave UUG fidelity -15, eIF4H FP inh 8, Rce1 inhib inactive, CSC inhib -23, MT1-MMP act inh -9, PABP FP inh -10 and MT1-MMP act inh RFP 3.
COc1ccccc1OCC#CCNC1CCCCC1C (centres undefined) was read as eIF4H FP inh 8, Rce1 inhib inactive, CSC inhib 6, HIV Env fusion 25, MT1-MMP act inh -3, PABP FP inh 6 and MT1-MMP act inh RFP 2.
For COc1ccc(C(C)(C)C)cc1NC(=O)C1CCCO1 (centres undefined) the results were UUG fidelity -7, eIF4H FP inh 7, Rce1 inhib inactive, CSC inhib -7, HIV Env fusion 16, MT1-MMP act inh 2, PABP FP inh -2 and MT1-MMP act inh RFP 3.
For Cc1ccc(N=Nc2[nH]c3ccccc3c2O)cc1 the results were UUG fidelity -12, eIF4H FP inh -2, Rce1 inhib inactive, CSC inhib 4, HIV Env fusion -17, MT1-MMP act inh -18, PABP FP inh 15 and MT1-MMP act inh RFP -3.
Cc1c(NC(=O)c2ccc(N3C(=O)C4C5C=CC(C5)C4C3=O)cc2)c(=O)n(-c2ccccc2)n1C (centres undefined) was read as UUG fidelity -6, eIF4H FP inh -1, Rce1 inhib inactive, CSC inhib -22, HIV Env fusion 5, MT1-MMP act inh 6, PABP FP inh -5 and MT1-MMP act inh RFP 6.
Screening CC(Sc1nc(=O)cc(N)n1CCc1ccccc1)C(=O)NCc1ccccc1 (centres undefined) returned eIF4H FP inh -8, Rce1 inhib inactive, HIV Env fusion -15, MT1-MMP act inh -3, PABP FP inh -1 and MT1-MMP act inh RFP 2.
For CCOC(=O)C1(CC2CCCCO2)CCN(S(=O)(=O)c2ccccc2)CC1 (centres undefined) the results were eIF4H FP inh 2, Rce1 inhib inactive, CSC inhib -16, HIV Env fusion 9, MT1-MMP act inh -2, PABP FP inh 4 and MT1-MMP act inh RFP -3.
For CC(=O)c1cc2c(cc1NC(=O)Cn1nc(-c3ccc(F)cc3)ccc1=O)OCO2 the results were UUG fidelity -14, eIF4H FP inh -14, Rce1 inhib inactive, CSC inhib -2, HIV Env fusion 10, MT1-MMP act inh -1, PABP FP inh -2 and MT1-MMP act inh RFP -3.
O=C1CC(c2ccccc2)=NN1c1nc(-c2ccccc2)cs1 was read as eIF4H FP inh 19, Rce1 inhib inactive, CSC inhib 44, HIV Env fusion -7, MT1-MMP act inh 8, PABP FP inh 2 and MT1-MMP act inh RFP 3.
`CCSCCOC(=O)C1=C(C)NC(=O)NC1c1ccc2c(c1)OCO2` (centres undefined) gave UUG fidelity -12, eIF4H FP inh -5, Rce1 inhib inactive, CSC inhib -11, HIV Env fusion 18, MT1-MMP act inh 3, PABP FP inh -4 and MT1-MMP act inh RFP -5.
Screening Cc1cc(C(=O)Nc2ccncc2)ccc1[N+](=O)[O-] returned UUG fidelity -6, eIF4H FP inh -5, Rce1 inhib inactive, CSC inhib -10, HIV Env fusion -22, MT1-MMP act inh -1, PABP FP inh -6 and MT1-MMP act inh RFP -5.
`CC1=C(C(=O)OCC(C)C)C(c2ccccc2Cl)NC(=O)N1C` (centres undefined) gave UUG fidelity 20, eIF4H FP inh -7, Rce1 inhib inactive, CSC inhib -12, HIV Env fusion 0, MT1-MMP act inh -4, PABP FP inh -6 and MT1-MMP act inh RFP -15.
For CCC(C)NCCOc1ccc(C(C)(C)c2ccccc2)cc1 (centres undefined) the results were UUG fidelity -10, eIF4H FP inh 20, Rce1 inhib inactive, CSC inhib inconclusive, HIV Env fusion 22, MT1-MMP act inh -10, PABP FP inh -9 and MT1-MMP act inh RFP -6.
Screening CCN(C(=O)CSc1nnc(-c2ccccc2OC)n1N)c1c(N)n(Cc2ccccc2)c(=O)[nH]c1=O returned UUG fidelity -18, HIV Env fusion -19, MT1-MMP act inh 7 and MT1-MMP act inh RFP 5.
`Nc1c(C(=O)Nc2ccc3c(c2)OCCO3)nnn1CCc1ccccc1` gave UUG fidelity 0, eIF4H FP inh -2, Rce1 inhib inactive, CSC inhib 45, HIV Env fusion -328, MT1-MMP act inh -2, PABP FP inh 1 and MT1-MMP act inh RFP -7.
O=C(CSc1ccc(-c2ccc(Cl)cc2)nn1)Nc1ccc2c(c1)OCCO2 was read as UUG fidelity -10, eIF4H FP inh 16, Rce1 inhib inactive, CSC inhib -13, MT1-MMP act inh 3, PABP FP inh 9 and MT1-MMP act inh RFP -5.
Screening CCn1c(C)c(C(C)=O)c(N2CCCC2)nc1=S returned UUG fidelity -11, eIF4H FP inh -8, Rce1 inhib inactive, CSC inhib -16, HIV Env fusion -71, MT1-MMP act inh -6, PABP FP inh 0 and MT1-MMP act inh RFP 1.
Cc1[nH]n(-c2ccccc2)c(=O)c1/C=N/NC(=O)c1ccoc1C was read as eIF4H FP inh 0, Rce1 inhib inactive, CSC inhib 35, HIV Env fusion 39, MT1-MMP act inh 5, PABP FP inh 11 and MT1-MMP act inh RFP -5.
O=c1[nH]c(NCc2ccco2)nnc1Cc1ccccc1Cl was read as UUG fidelity -23, eIF4H FP inh -13, CSC inhib 54, HIV Env fusion -104, MT1-MMP act inh 4, PABP FP inh -7 and MT1-MMP act inh RFP -10.
Cc1nc2cc(NC(=O)Nc3ccc(Br)cc3)ccc2o1 was read as eIF4H FP inh 0, CSC inhib 1, HIV Env fusion -32, MT1-MMP act inh 8, PABP FP inh 4 and MT1-MMP act inh RFP -4.
Screening COc1ccc(C(=O)c2ccc(Br)cc2)cc1 returned UUG fidelity -18, eIF4H FP inh -12, Rce1 inhib inactive, CSC inhib -5, HIV Env fusion -7, MT1-MMP act inh 0, PABP FP inh -12 and MT1-MMP act inh RFP -2.
For O=C(CCN1C(=O)c2ccccc2S1(=O)=O)N1CCN(c2ccccc2F)CC1 the results were UUG fidelity -5, Rce1 inhib inactive, CSC inhib 5, HIV Env fusion 11, MT1-MMP act inh 2 and MT1-MMP act inh RFP 2.
`O=C(C[C@H]1C/C=C\C[C@H](Cc2ccc(F)cc2)C(=O)OC[C@@H]2CCCN2C1=O)N[C@H](CO)Cc1ccccc1` gave CSC inhib 8, HIV Env fusion -33, MT1-MMP act inh -1 and MT1-MMP act inh RFP 3.
Cc1ccc(CNC(=O)CCc2nc(-c3cccs3)no2)cc1 was read as UUG fidelity -16, eIF4H FP inh 3, Rce1 inhib inactive, CSC inhib -10, HIV Env fusion -8, MT1-MMP act inh -2, PABP FP inh -4 and MT1-MMP act inh RFP 4.
`O=C(CSc1nnc(Cn2c(=O)sc3ccccc32)n1-c1ccccc1)N1CCCC1` gave UUG fidelity 1, eIF4H FP inh 7, CSC inhib -37, HIV Env fusion -22, MT1-MMP act inh -2, PABP FP inh -20 and MT1-MMP act inh RFP 1.
`CCOC(=O)c1c(-c2ccccc2)csc1NC(=S)NC` gave eIF4H FP inh 2, Rce1 inhib inactive, CSC inhib -1, HIV Env fusion 24, MT1-MMP act inh -2, PABP FP inh 4 and MT1-MMP act inh RFP -1.
COC(=O)C(C)N1C(=O)S/C(=C\c2cc(C)n(-c3ccccn3)c2C)C1=O (centres undefined) was read as UUG fidelity -5, eIF4H FP inh 119, Rce1 inhib inactive, CSC inhib -9, HIV Env fusion -129, MT1-MMP act inh 0, PABP FP inh 120, eIF4H FP inh retest 5, PABP FP inh retest 4 and MT1-MMP act inh RFP -9.
For CN1C(=O)/C(=C/c2cccc(Cl)c2)Sc2ccc(C(=O)N3CCCC3)cc21 the results were eIF4H FP inh -17, Rce1 inhib inactive, CSC inhib -10, HIV Env fusion 8 and PABP FP inh 9.
Screening Cc1cc(NC(=O)CN2CCN(c3ccccn3)CC2)ccc1Br returned UUG fidelity -20, eIF4H FP inh -4, Rce1 inhib inactive, CSC inhib -4, HIV Env fusion 14, MT1-MMP act inh 1, PABP FP inh 11 and MT1-MMP act inh RFP -2.
For Nc1ccccc1N=Nc1ccccc1N the results were UUG fidelity -8, eIF4H FP inh -4, Rce1 inhib inactive, CSC inhib 23, HIV Env fusion -104, MT1-MMP act inh 24, PABP FP inh -3 and MT1-MMP act inh RFP 6.
COc1ccc(-n2c(SCC(=O)N3CCCC(C)C3)nnc2-c2cccnc2)cc1 (centres undefined) was read as UUG fidelity -1, eIF4H FP inh -9, Rce1 inhib inactive, CSC inhib -10, MT1-MMP act inh 2, PABP FP inh 1 and MT1-MMP act inh RFP 9.
`CN(C(=O)c1cccc(COc2ccc(Cl)cc2Cl)c1)c1ccccc1` gave UUG fidelity -7, eIF4H FP inh -9, Rce1 inhib inactive, CSC inhib 14, HIV Env fusion -24, MT1-MMP act inh -6, PABP FP inh 102*, eIF4H FP inh retest 34, PABP FP inh retest 70* and MT1-MMP act inh RFP -6.
`CCC(=O)c1ccc(/C=C/c2nc3ccccc3n2C)o1` gave eIF4H FP inh 70, Rce1 inhib inactive, CSC inhib -11, HIV Env fusion -124, MT1-MMP act inh -10, PABP FP inh -13, eIF4H FP inh retest 11, PABP FP inh retest -4 and MT1-MMP act inh RFP -2.
CCOC(=O)N1CCN(C(=O)c2oc3ccc(S(=O)(=O)N(CC)CC)cc3c2C)CC1 was read as UUG fidelity 26, eIF4H FP inh 7, Rce1 inhib inactive, CSC inhib -14, HIV Env fusion 10, MT1-MMP act inh 1, PABP FP inh 12 and MT1-MMP act inh RFP -1.
Screening Cn1c(=O)c2c(nc(CN3CCN(C(=O)c4ccco4)CC3)n2CCc2ccccc2)n(C)c1=O returned UUG fidelity -12, eIF4H FP inh -4, Rce1 inhib inactive, CSC inhib -16, HIV Env fusion 7, MT1-MMP act inh -2, PABP FP inh -13 and MT1-MMP act inh RFP -3.
N#Cc1cccnc1N1CCC(C(N)=O)CC1 was read as eIF4H FP inh -11, Rce1 inhib inactive, CSC inhib -23, HIV Env fusion 31, MT1-MMP act inh -1, PABP FP inh 0 and MT1-MMP act inh RFP 5.
For Cc1ccc(C(=O)OCc2nc(N)nc(Nc3ccccc3C)n2)cc1 the results were UUG fidelity 13, eIF4H FP inh -11, Rce1 inhib inactive, CSC inhib -14, HIV Env fusion -2, MT1-MMP act inh 3, PABP FP inh -4 and MT1-MMP act inh RFP 6.
